PD-1 reversal: activators reversing PD-1 mediated T-cell inhibition, primary screen, luminescence, primary human CD4 T cells, PD-L1 beads; CellTiter-Glo 96 h; 29,000 tested, under 10 active; activation, % (test concentration not listed);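 active = replicate mean of 50% or more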;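 also: 0% = median vehicle wells and 100% = positive control; 100 nL library stock added to about 50 µL; numbers are from one replicate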
Hedgehog inh: Hedgehog pathway signaling inhibitors, primary screen, luminescence, Shh-LIGHT2 cells, Gli-luciferase; Shh-LIGHT2 Gli-luciferase reporter, 30 h; inhibition, % (concentration not given with the values); 22,000 compounds, 2.1% hits; AID 2313, 2010;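 active = replicate mean of 65% or more; inconclusive = mean lower but half the replicates past it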;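 also: pathway switched on by Shh-conditioned medium diluted 1 in 25 in low serum; 100 nL library stock added to about 40 µL; 0% = median of neutral wells and 100% = positive control level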
MITF inhib: inhibitors of MITF, primary screen, MITF inhibitor project, cell-based, luminescence. inhibition, % (no concentration beside the values). 37,000 compounds, 0.28% hits. TRPM1 promoter luciferase, 24 h;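 active = most replicates at 85% or more, or half of them and the mean; inconclusive = half reach 85% but not the mean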;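 also: human melanocyte line stably carrying TRPM1 promoter luciferase reporter; 0% = vehicle wells and 100% = a positive control; the first replicate is given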
YB-1 expr inh: inhibitors of YB-1 gene expression, primary screen, cell-based, fluorescence; 30,000 compounds, 0.37% hits; delta delta Cp (YB-1 minus CDIP) (test concentration not listed); U2OS, qRT-PCR YB-1 vs CDIP delta delta Cp, 16 h; active compounds read high; zero = DMSO, each unit about twofold;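 active = delta delta Cp rounded down to an integer at or above 3, about 3 SD of DMSO wells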;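 also: higher means less YB-1 transcript or more CDIP transcript relative to DMSO; stock transfer was 100 nL into about 100 µL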
Starred values were filed as active, the others as inactive; ? = inconclusive; . = no result given. Only part of the results is shown. The share of hits here may be higher or lower than overall.

Compound,PD-1 reversal,Hedgehog inh,MITF inhib,YB-1 expr inh
COc1cc2c(cc1NC(=O)CSc1ccccn1)oc1ccccc12,-2.4,.,-38.2,.
Cc1ccc(S(=O)(=O)N(C)C[C@@H]2Oc3c(NC(=O)C4CC4)cccc3C(=O)N([C@H](C)CO)C[C@@H]2C)cc1,-0.9,115.2*,4.9,0.00155
C[C@H](CO)N1C[C@H](C)[C@@H](CN(C)Cc2ccc(Cl)c(Cl)c2)Oc2c(NS(=O)(=O)c3cn(C)cn3)cccc2C1=O,-7.6,-15.3,-9.8,-0.448
C[C@@H]1CN([C@H](C)CO)C(=O)c2cc(NC(=O)CCCN(C)C)ccc2O[C@H]1CN(C)S(C)(=O)=O,.,-14.9,7.3,-0.0407
CC(C)NC(=O)N(C)C[C@@H]1Oc2ccc(NC(=O)c3ccncc3)cc2C(=O)N([C@H](C)CO)C[C@H]1C,1.3,-4.6,6.1,-0.34
C[C@@H]1CN([C@H](C)CO)C(=O)c2cccc(NS(=O)(=O)c3ccc(F)cc3)c2O[C@H]1CN(C)C(=O)Nc1ccccc1,-0.2,-22.6,-9.7,0.121
CC(C)NC(=O)N(C)C[C@@H]1Oc2ccc(NC(=O)C3CCCCC3)cc2C(=O)N([C@H](C)CO)C[C@H]1C,-0.9,-9.1,-3.7,0.25
COc1cc(OC)cc(C(=O)N(Cc2nc(-c3cccc(C)c3)no2)C(C)C)c1,1.1,.,-5.4,.
CC(C)NC(=O)N(C)C[C@@H]1Oc2ccc(NC(=O)Nc3ccc(F)cc3)cc2CC(=O)N([C@H](C)CO)C[C@H]1C,0.1,.,-13.4,-0.153
Cc1ccc(C)c(N(CC(=O)Nc2ccc(I)cc2)S(C)(=O)=O)c1,-0.5,.,-27.6,.
C[C@@H]1O[C@@H](Oc2c(-c3ccc(O)c(O)c3)oc3cc(O)cc(O)c3c2=O)[C@H](O)[C@H](O)[C@H]1O,1.3,-26.5,2.8,0.271
CCOC(=O)c1c(CSc2nc(C)cc(C)n2)nc2c3ccccc3ccn12,-0.6,.,-111.4,.
C[C@H]1CN([C@@H](C)CO)C(=O)c2cccc(NS(=O)(=O)c3ccc(F)cc3)c2O[C@@H]1CN(C)Cc1ccc(Oc2ccccc2)cc1,-2.6,-1.3,29.2,0.103
COc1ccccc1NC(=O)CNC(=O)c1ccc(Cl)cc1Cl,-0.2,.,-21.7,.
C[C@H]1CN([C@@H](C)CO)C(=O)c2cccc(NC(=O)Nc3ccc(C(F)(F)F)cc3)c2O[C@H]1CN(C)C(=O)Nc1ccc2c(c1)OCO2,.,-48.8,-0.9,-0.0963
CC1(C)CC(=O)C2=C(C1)N(CC1CCCO1)C(=O)C2(NC(=O)c1ccccc1)C(F)(F)F (stereo unspecified),3.0,.,-8.6,.

An excerpt from above in order of number of heavy atoms, largest number first:
Compound,PD-1 reversal,Hedgehog inh,MITF inhib,YB-1 expr inh
C[C@H](CO)N1C[C@H](C)[C@@H](CN(C)Cc2ccc(Cl)c(Cl)c2)Oc2c(NS(=O)(=O)c3cn(C)cn3)cccc2C1=O,-7.6,-15.3,-9.8,-0.448
CC(C)NC(=O)N(C)C[C@@H]1Oc2ccc(NC(=O)Nc3ccc(F)cc3)cc2CC(=O)N([C@H](C)CO)C[C@H]1C,0.1,.,-13.4,-0.153
Cc1ccc(C)c(N(CC(=O)Nc2ccc(I)cc2)S(C)(=O)=O)c1,-0.5,.,-27.6,.

Remaining list, next part
Compound,PD-1 reversal,Hedgehog inh,MITF inhib,YB-1 expr inh
N#Cc1ccccc1CSc1nnc(CN2CCOCC2)n1-c1ccccc1,1.4,.,-10.8,.
COc1ccc(OCCSc2nc3ccccc3n2C)cc1,-0.6,0.9,-36.1,0.199
C[C@H]1CN([C@@H](C)CO)C(=O)c2cc(NS(=O)(=O)c3ccccc3)ccc2O[C@H]1CN(C)S(=O)(=O)c1cccs1,-3.7,?,-13.6,-0.00987
C[C@H]1CN([C@@H](C)CO)C(=O)c2cc(NC(=O)CCN3CCOCC3)ccc2O[C@@H]1CN(C)S(C)(=O)=O,.,.,0.8,-0.19
CC1CCCN(CC(O)COCC2COc3ccccc3O2)C1 (stereo unspecified),2.0,.,-27.6,.
Cc1ccc(S(=O)(=O)N(C)C[C@H]2Oc3c(NC(=O)Nc4ccc(C(F)(F)F)cc4)cccc3C(=O)N([C@@H](C)CO)C[C@H]2C)cc1,-7.4,-23.6,77.6,-0.211
C[C@@H]1CN([C@H](C)CO)C(=O)Cc2cc(NC(=O)CCC(F)(F)F)ccc2O[C@@H]1CN(C)S(C)(=O)=O,1.2,8.4,-2.3,-0.232
Cc1cc(C(=O)Nc2cccc3c2O[C@H](CN(C)S(C)(=O)=O)[C@H](C)CN([C@H](C)CO)C3=O)n(C)n1,1.1,20.8,-11.8,-0.813
O=C1C(c2ccccc2)CCCC1c1ccccc1 (stereo unspecified),-0.3,22.1,-3.1,-0.0324
C[C@@H]1CN([C@@H](C)CO)C(=O)c2cc(NC(=O)c3ccncc3)ccc2O[C@H]1CN(C)Cc1ccncc1,1.0,.,1.2,-0.239
Cc1ccc(S(=O)(=O)N(C)C[C@@H]2Oc3ccc(NC(=O)C4CC4)cc3CC(=O)N([C@@H](C)CO)C[C@@H]2C)cc1,0.1,.,13.1,0.143
Cc1ccc(S(=O)(=O)Nc2cccc3c2O[C@H](CN(C)Cc2ccc(Cl)c(Cl)c2)[C@@H](C)CN([C@@H](C)CO)C3=O)cc1,.,13.4,3.1,-0.601
COc1ccc(NC(=O)Nc2ccc3c(c2)C(=O)N([C@H](C)CO)C[C@@H](C)[C@H](CN(C)Cc2ccc(Oc4ccccc4)cc2)O3)cc1,.,9.4,3.5,0.311
C[C@H](CO)N1C[C@H](C)[C@H](CN(C)C(=O)Nc2ccccc2)Oc2ccc(NC(=O)CCC(F)(F)F)cc2CC1=O,0.1,-10.0,-14.8,0.00279
C[C@H]1CN([C@@H](C)CO)C(=O)c2cc(N(C)C)ccc2O[C@@H]1CN(C)S(=O)(=O)c1ccccc1,0.7,2.6,2.1,0.43
COc1ccc(S(=O)(=O)N(C)C[C@H]2Oc3ccc(NC(=O)NC(C)C)cc3CC(=O)N([C@@H](C)CO)C[C@@H]2C)cc1,-0.9,5.0,0.1,0.174
O=S(=O)(c1cccc2c(Cl)cccc12)N1CCCNCC1,-3.0,37.1,-10.1,0.616
Cc1noc(C)c1NC(=O)N(C)C[C@H]1Oc2c(NS(=O)(=O)c3cn(C)cn3)cccc2C(=O)N([C@@H](C)CO)C[C@H]1C,.,-6.8,-5.2,-0.364
C[C@@H]1CN([C@@H](C)CO)C(=O)c2cc(NS(C)(=O)=O)ccc2O[C@@H]1CN(C)C(=O)NC1CCCCC1,0.4,-33.3,4.2,-0.443
CC(=O)c1ccccc1OCC(O)CN1CCN(c2ccccn2)CC1 (stereo unspecified),2.1,.,-8.9,.
Cc1ccc(S(=O)(=O)N(C)C[C@H]2Oc3c(NC(=O)Nc4cccc5ccccc45)cccc3C(=O)N([C@@H](C)CO)C[C@@H]2C)cc1,1.4,?,-10.1,-0.164
C[C@H](CO)N1C[C@H](C)[C@@H](CN(C)S(=O)(=O)c2cn(C)cn2)Oc2c(NS(C)(=O)=O)cccc2C1=O,2.9,-20.6,-4.7,-0.32
Cc1noc(C)c1S(=O)(=O)Nc1ccc2c(c1)CC(=O)N([C@H](C)CO)C[C@H](C)[C@H](CN(C)C(=O)NC(C)C)O2,.,-4.3,-17.2,0.22
Cc1noc(C)c1S(=O)(=O)Nc1ccc2c(c1)C(=O)N([C@@H](C)CO)C[C@@H](C)[C@H](CN(C)CC1CC1)O2,.,-28.6,-7.6,0.324
Cc1noc(C)c1S(=O)(=O)Nc1ccc2c(c1)CC(=O)N([C@@H](C)CO)C[C@H](C)[C@@H](CN(C)S(=O)(=O)c1ccc(Cl)cc1)O2,.,27.0,0.5,0.13
COc1ccc(C)cc1S(=O)(=O)N(C)CC(=O)N1CCOCC1,0.4,.,-22.5,.
Cc1ccc(NS(=O)(=O)c2cc(C(=O)Nc3ccccc3C(=O)N3CCCC3)ccc2Cl)cc1C,-0.7,.,20.1,.
Cc1ccc(C)c(C(Nc2ccccn2)c2ccc3ccc(C)nc3c2O)c1 (stereo unspecified),-13.0,.,44.4,.
CNC(=O)CN(c1ccc(Br)c(C)c1)S(C)(=O)=O,1.5,.,3.2,.
Cc1cc(C)c(NC(=O)CN(C)S(=O)(=O)c2ccc3ccccc3c2)c(C)c1,0.9,.,-3.5,.
O=C(NCc1nc(-c2ccccc2)no1)c1ccc2ccccc2c1,-0.4,.,4.6,.
C[C@H]1CN([C@@H](C)CO)C(=O)c2cccc(NC(=O)NC3CCCCC3)c2O[C@H]1CN(C)S(=O)(=O)c1ccccc1,-1.8,39.7,-7.7,-0.00299
C[C@@H]1CN([C@H](C)CO)C(=O)Cc2cc(NS(=O)(=O)c3ccc(F)cc3)ccc2O[C@H]1CN(C)Cc1ccc(C(=O)O)cc1,3.1,-20.4,-6.9,-0.309
COC(=O)c1c(NC(=O)CSc2ccccn2)sc2c1CCC2,-2.5,.,11.0,.
Cc1noc(C)c1NC(=O)N(C)C[C@@H]1Oc2c(NC(=O)c3ccncc3)cccc2C(=O)N([C@H](C)CO)C[C@@H]1C,1.7,-83.2,-1.2,0.629
C[C@@H]1CN([C@@H](C)CO)C(=O)c2cccc(NC(=O)Nc3ccc(C(F)(F)F)cc3)c2O[C@@H]1CN(C)S(=O)(=O)c1ccccc1,-4.8,-12.5,-4.5,-0.109
CC(C)C1=NNC(=O)C1(C)C,1.5,-31.2,-38.4,0.0309
C[C@@H]1CN([C@@H](C)CO)C(=O)c2cccc(NC(=O)C3CCOCC3)c2O[C@H]1CN(C)S(=O)(=O)c1cccs1,.,-9.8,3.1,0.0428
Cc1noc(C)c1S(=O)(=O)Nc1cccc2c1O[C@H](CN(C)Cc1ccncc1)[C@H](C)CN([C@@H](C)CO)C2=O,2.3,23.3,-6.7,0.184
CC(C)NC(=O)Nc1ccc2c(c1)C(=O)N([C@@H](C)CO)C[C@@H](C)[C@@H](CN(C)Cc1ccc(Cl)c(Cl)c1)O2,1.2,-10.2,-4.8,0.358
C[C@@H]1CN([C@H](C)CO)C(=O)c2cc(NC(=O)C3CCCCC3)ccc2O[C@@H]1CN(C)S(C)(=O)=O,1.2,-10.3,-8.2,0.0253
COc1ccc(S(=O)(=O)N(C)C[C@H]2Oc3c(NC(=O)c4nc5ccccc5s4)cccc3C(=O)N([C@H](C)CO)C[C@H]2C)cc1,.,-9.8,1.2,-0.212
COc1ccc(NC(=O)N(C)C[C@H]2Oc3c(NC(=O)c4cc(C)nn4C)cccc3C(=O)N([C@@H](C)CO)C[C@@H]2C)cc1,.,-12.7,3.9,0.00652
O=C(CCn1nc(-c2ccc(Cl)cc2)c2ccccc2c1=O)Nc1ccc(Br)cc1,1.9,.,-0.7,.
Cc1ccccc1OCC(=O)Nc1cccc(-c2nc3ncccc3o2)c1,0.5,.,-64.7,.
O=C(CN1C(=O)c2cccc3cccc1c23)Nc1ccc(S(=O)(=O)N2CCCCCC2)cc1,-1.0,.,12.2,.
Cc1noc(C)c1NC(=O)N(C)C[C@H]1Oc2ccc(NC(=O)CCCCCC(=O)Nc3ccccc3N)cc2C(=O)N([C@@H](C)CO)C[C@H]1C,3.3,.,-10.8,0.0807
CC1CCc2c(sc3nnn(CC(=O)Nc4cc(Cl)ccc4Cl)c(=O)c23)C1 (stereo unspecified),-1.2,.,-35.4,.
Cc1noc(C)c1S(=O)(=O)Nc1ccc2c(c1)CC(=O)N([C@H](C)CO)C[C@@H](C)[C@H](CN(C)C(=O)Nc1ccc3c(c1)OCO3)O2,0.7,7.9,12.0,0.351
COc1cc(OC)c2c(=O)c(OC)c(-c3ccccc3)oc2c1,0.7,-14.2,-22.0,0.256
O=C(CSc1nc2ccccc2s1)Nc1ccc(I)cc1,-0.9,.,18.2,.
C[C@H]1CN([C@@H](C)CO)C(=O)Cc2cc(NC(=O)Nc3cccc4ccccc34)ccc2O[C@H]1CN(C)S(=O)(=O)c1ccc(F)cc1,1.2,-1.4,23.5,-0.135
Cc1noc(C)c1NC(=O)N(C)C[C@@H]1Oc2ccc(NS(C)(=O)=O)cc2CC(=O)N([C@H](C)CO)C[C@@H]1C,1.5,35.1,1.6,-0.0389
COc1ccc(CN(C)C[C@@H]2Oc3ccc(NC(=O)Cc4ccccc4)cc3CC(=O)N([C@H](C)CO)C[C@H]2C)cc1,.,-11.0,-0.4,0.372
C[C@H](CO)N1C[C@H](C)[C@@H](CN(C)S(=O)(=O)c2ccccc2)Oc2c(NS(=O)(=O)c3ccc(Cl)cc3)cccc2C1=O,2.9,1.0,5.7,0.381
COc1ccc(C2C3=C(CC(C)(C)CC3=O)Nc3ccccc3N2C(C)=O)cc1COc1ccc(F)cc1 (stereo unspecified),0.2,.,-20.1,.

High-throughput results deposited in PubChem by Broad Institute.
